Vaccinia mCherry: vaccinia inhibition (mCherry reporter); 310,000 tested, 0.63% active; Potency, µM (top dose mostly 36.5 µM), for the others: at the highest dose activity change, negative = inhibition, most hits filed as inhibitors; Vaccinia virus mCherry reporter infection, fluorescence; about a quarter of the inactives have no number; AID 720579; active = well fitted inhibition curve with a large enough effect; inconclusive = small, poorly fitted or top-dose-only effect; inactive = no such curve, though single readings can be large or run the other way; tested in A549 cells; also: nearly all actives have a fitted effect of over 35% in size; inactives centre near -10
VACV Venus inh: inhibitors of vaccinia virus (Venus reporter); Vaccinia virus Venus reporter expression, fluorescence; Potency, µM (doses to about 36.5 µM), without a hit: at the highest dose activity change, negative = inhibition, usual class: inhibitors; 330,000 tested, 0.46% active; AID 720580; active means well fitted inhibition curve with a large enough effect; inconclusive means small, poorly fitted or top-dose-only effect; inactive means no such curve, though single readings can be large or run the other way; tested in A549 cells; also: nearly all actives have a fitted effect of over 30% in size; inactives centre near -10
Starred values were filed as active, the others as inactive; i = inactive; ? = inconclusive; nt = no result given; & = joins results of further samples; [ ] = another dose, or the depositor's remark. % is scaled to controls: 0 for no effect and ±100 for the full control effect; potency is read from the fitted curve at half-maximal effect.

SMILES	Vaccinia mCherry	VACV Venus inh
CCc1nc2cc(C(=O)N[C@H]3CCCCNC3=O)cc(NC(=O)c3ccccc3OC)c2n1C	i	-13%
CCn1nc(C(=O)NNC(=O)COc2ccccc2C)c2ccccc2c1=O	-3%	-11%
CC(C)N1CCC1(C)C(=O)Nc1nc2ccccc2[nH]1 (centres undefined)	6%	5%
O=C(C[n+]1ccccc1)N/N=C/c1ccccc1[N+](=O)[O-]	7%	1%
CN(CCCNC(=O)C1CCN(S(=O)(=O)c2cccc3nsnc23)CC1)Cc1ccccc1	-25%	-10%
Cc1occc1C(=O)Nc1cc(S(=O)(=O)N2CCOCC2)ccc1OC(C)C	-20%	-11%
Cc1ccccc1NC(=O)c1ccc(F)c(S(=O)(=O)NC2CCCC2)c1	-11%	-13%
CCOC(=O)N1CCN(Cc2nc3ccc([N+](=O)[O-])cc3c(=O)n2-c2ccc(OC)cc2OC)CC1	22%	0%
CCCCN(C)C(=O)c1nc2ccccn2c1CN1CCN(C(=O)c2cccs2)CC1	-9%	-1%
CCCCn1c(/N=C/c2c[nH]c3ccccc23)nc2ccccc21	?	?
NCCC1CN(C(=O)OCc2ccccc2)c2ccccc21 (centres undefined)	-13%	-19%
O=C(CCNC(=O)c1ccc(Br)cc1)NC1CCCCCC1	-8%	-15%
COC(=O)C1=C(c2ccc(Cl)c(C(F)(F)F)c2)C[C@@H]2CC[C@H]1N2C(=O)NCCCOC(C)C	i	-22%
O=C(CN1C(=O)NC2(CCCC2)C1=O)NNC(=O)c1ccccc1	i	-18%
Nc1nc(-c2ccccc2)cs1	-22%	-24%
OCC[C@@H]1C[C@@H](O)[C@H](O)[C@]2(OCCCc3ccccc32)O1	i	-6%
Cc1cccc(OC(=O)c2snnc2C)c1	-4%	5%
COc1ccccc1CNS(=O)(=O)c1cc(C(=O)N(C)Cc2cccnc2)c(Cl)cc1Cl	-4%	-15%
CCOc1ccccc1N(CC(=O)NC1CCCCC1)C(=O)c1nsc(Cl)c1Cl	i	-7%
COC(=O)Cn1c(=NC(=O)C(C)C)sc2c(C)cc(C)cc21	2%	5%
CCOCCCN(C)C1CCN(C(=O)c2oc3ccccc3c2NC(=O)Cc2ccc([N+](=O)[O-])cc2)CC1	i	-17%
O=C(CCc1ccccn1)N1CCCC(N2CCN(c3cccc(C(F)(F)F)c3)CC2)C1 (centres undefined)	-19%	-7%
CC[C@@H]1[C@H]2CCCC(=O)N3CC[C@@H](C[C@H]1O)[C@@H]23	i	-16%&-15%
NNc1nc(-c2ccccc2)nc2sc3c(c12)CCCC3	-15%	-3%
COc1ccc(-c2cc(=O)n3[nH]cnc3n2)cc1	-21%	-8%
O=C(COc1ccccc1)c1cn(CC(=O)N2CCCC2)c2ccccc12	-1%	-5%
COc1ccc(CC(=O)NCC(=O)N/N=C/c2c[nH]c3ccccc23)cc1	-13%	-7%
CC(=C\c1ccco1)/C=C(\C#N)C(=O)NCCc1c[nH]c2ccccc12	-9%	-11%
CSCC[C@H](NC(=O)[C@H](Cc1ccccc1)n1c(=O)[nH]c2ccccc2c1=O)C(=O)N1CCC[C@H]1C(=O)O	1%	-4%
COc1ccc(C(C)=O)cc1CC(=O)NCCCn1ccnc1	i	-15%
O=C(CC1SC(N2CCCCC2)=NC1=O)Nc1cccc(C(F)(F)F)c1 (centres undefined)	-16%	-16%
Cc1ccccc1C(=O)NCCCn1ccnc1	-2%	-7%
CCN1CCN(CCNC(=O)Nc2ccc([N+](=O)[O-])cc2)CC1	-3%	3%
COc1ccccc1CNC(=O)c1cc(S(=O)(=O)N2CCCC(C)C2)cn1C (centres undefined)	-5%	-8%
CCn1nc(C)cc1C(=O)N1CCCC(C(=O)c2ccccc2SC)C1 (centres undefined)	-26%	-10%
CCNC(=O)C1(C)CCCN(CCOc2ccc(OC)cc2)C1 (centres undefined)	3%	-8%
O=C(COC(=O)c1cccs1)c1ccccc1	-11%	-7%
O=C1CC2OCC=C3CN4CC[C@@]56c7ccccc7N1C5C2C3CC46 (some centres undefined)	-11%	-1%
COc1ccc(Cl)cc1NC(=S)N1CCCC1	0%	15%
CC(=O)c1ccc(N2CCN(C(=O)c3cc(S(=O)(=O)N4CCCCCC4)cn3C)CC2)cc1	-2%	-14%
COc1ccc(NC(=S)N2CCN(C/C=C/c3ccccc3)CC2)cc1	?	-29%
Cc1ccc2c(c1)C1CN(C)CCC1N2CC(=O)N(C)c1ccccc1 (centres undefined)	-8%	2%
COc1cc(C(C)=O)ccc1OCC(=O)NCc1ccccc1CN1CCCC1	i	-13%
Cc1cc(C)n(/N=C/c2c[nH]c3ccccc23)c(=O)c1C#N	i	-9%
COc1ccc(-n2nc(C(=O)Nc3nc4ccc(OC)cc4s3)c3ccccc3c2=O)cc1	-5%	-3%
COC(=O)c1ccccc1NC(=O)Cn1c(=O)n(CCCCC(=O)NCc2ccc3c(c2)OCO3)c(=O)c2ccccc21	-15%	-14%
COc1ccc(-c2cc(=O)oc3cc(OCC(=O)Nc4ccc(CCO)cc4)ccc23)cc1	11%	-5%
O=C(Cn1nc(Cc2cccnc2)c2ccccc2c1=O)Nc1ccccc1F	i	-15%
CCc1nccn1S(=O)(=O)c1cc(Br)ccc1OC	-7%	-8%
CCN1C(=O)[C@H]2[C@H]3CN=C(SCC4CC4)N3[C@@](Cc3ccccc3)(C(=O)OC)[C@H]2C1=O	-24%	-26%
c1ccc(COc2ccc(OCCCNC3CCCC3)cc2)cc1	?	?
NC(=O)C1CCN(Cc2ccc(OCc3ccccc3)cc2)CC1	i	-21%
COc1ccc(Nc2ncnc3scc(-c4ccc(F)cc4)c23)cc1	-14%	-1%
CC[C@@]12C(=O)N(c3cccc(F)c3)C(=O)N1[C@H](c1ccc(Br)cc1)[C@@H]1C(=O)N(C(C)(C)C)C(=O)[C@@H]12	-2%	-10%
CCOC(=O)c1sc(/N=C/N(C)C)nc1C	-6%	-14%
CC1=C(C(=O)O)N2C(=O)C(NC(=O)c3c(F)cccc3F)C2SC1 (centres undefined)	-1%	2%
Cn1c2c(c3ccccc31)CCN(CCCCN1CCN(c3ccccc3)CC1)C2=O	?	?
O=C1C=C2C=C[C@H]3C[C@]2(O1)[C@@H]1CCCCN13	-27%	?
N#CC1=C(N)C(C#N)(C#N)C2(C(=O)Nc3ccccc32)C2CCCC=C12 (centres undefined)	-19%	-7%
CCOC(=O)N(C)c1c(CC)nc2c(OCc3ccc(Cl)cc3Cl)cccn12	-14%	-27%
Next part:
SMILES	Vaccinia mCherry	VACV Venus inh
Cc1nn(Cc2ccc(Cl)cc2)c(C)c1NC(=O)C1CC=CCC1C(=O)O (centres undefined)	nt	-16%
O=C(c1cc(-c2ccc(Br)cc2)on1)N1CCOCC1	-20%	-16%
CCOc1ccc(CCN2C(=S)N([C@@H](CC(C)C)CN3CCC[C@@H]3CN3C(=S)NC[C@@H]3Cc3ccccc3)C[C@@H]2Cc2ccc(O)cc2)cc1	0%	-15%
Cc1ccc2[nH]c(C)c(CCNC(=O)NC3CCCCC3)c2c1	?	?
Cc1cc(C)n(CCCNC(=O)CCNS(=O)(=O)c2ccccc2C(F)(F)F)n1	-12%	-7%
CC(C(=O)Nc1ccc(C(F)(F)F)cc1)N(C)CC(=O)N1CCN(Cc2ccccc2)CC1 (centres undefined)	?	-26%
N#Cc1cccc(C#N)c1Oc1ccc(S(=O)(=O)Nc2ccccc2)cc1	i	-15%
N#CCCCSc1nnc(Cc2ccc3c(c2)OCO3)o1	-13%	-1%
Cc1cc(NC(=O)CSc2nnc3c4c(C)c(C)sc4ncn23)no1	-14%	-9%
O=C(NC(=S)N1CCN(c2ccc(F)cc2)CC1)c1cccs1	?	-14%
O=C(NNC(=O)c1ccc(Br)o1)c1ccc(NS(=O)(=O)c2cccs2)cc1	i	-7%
COc1ccc(CN(CCCN2CCOCC2)C(=O)Nc2cccc(Cl)c2)cc1OC	nt	-12%
O=C(Nc1ccc(NC(=O)C23CC4CC(CC(C4)C2)C3)cn1)c1ccco1	-17%	-15%
Cc1ccc(NC(=O)CSc2ncnc3c2sc2ccccc23)cc1C	-12%	-29%
COc1ccccc1Nc1nn2c(=O)c3ccc(C(=O)NCc4cccs4)cc3nc2s1	?	?
Cc1cc(C(=O)O)c(CSc2ncn[nH]2)o1	i	-12%
Cc1cc(C)nc(SCNC(=O)c2ccccc2)n1	-10%	3%
CCN(CC)c1ccc(N=Cc2c(O)n(-c3ccccc3C)c(=O)[nH]c2=O)cc1	-24%	3%
Cc1sc2nc(C3CC3)nc(N3CCN(S(=O)(=O)c4ccc(F)cc4)CC3)c2c1C	-9%	-7%
CN(CCOCCOc1ccc(Cl)cc1Br)Cc1ccccc1	-11%	-10%

Brought forward from above: four entries, then new ones.
SMILES	Vaccinia mCherry	VACV Venus inh
Cc1cc(C)nc(SCNC(=O)c2ccccc2)n1	-10%	3%
CCN(CC)c1ccc(N=Cc2c(O)n(-c3ccccc3C)c(=O)[nH]c2=O)cc1	-24%	3%
Cc1sc2nc(C3CC3)nc(N3CCN(S(=O)(=O)c4ccc(F)cc4)CC3)c2c1C	-9%	-7%
CN(CCOCCOc1ccc(Cl)cc1Br)Cc1ccccc1	-11%	-10%
CN(c1ccccc1)S(=O)(=O)c1ccc(Cl)c(C(=O)NCc2ccco2)c1	i	2%
O=c1[nH]cnc2c1oc1ccccc12	-15%	-5%
Cc1noc(C)c1C(c1ccccc1)S(=O)(=O)c1ccccc1 (centres undefined)	-14%	-17%
COC(=O)c1ccc(NC(=O)CN2CCN(S(=O)(=O)c3cc(Cl)ccc3OC)CC2)cc1	nt	-14%
N/C(Cc1cccc2ccccc12)=N\OC(=O)COc1ccccc1	-2%	-5%
COc1ccc(NC(=O)N2CCCCCC2)cc1	-2%	-7%
C=CS(=O)(=O)c1sc(Cl)c(N2CCOCC2)c1[N+](=O)[O-]	?	?
Cc1ccnc(NC(=O)c2ccccc2NC(=O)C(C)(C)C)c1	-19%	?
CCCn1c(OC)nc2c1c(=O)n(C)c(=O)n2C	-8%	-13%
Cc1ccc([C@H]2C[C@@H](n3cc(-c4ccc(F)cc4)nn3)[C@H](O)CN2Cc2cccs2)cc1	i	-24%
Cn1c(=O)c2c(nc(N3CCOCC3)n2C)n(C)c1=O	nt	-13%
Cc1ccc(NS(=O)(=O)c2ccc3c(c2)NC(=O)CCS3)cc1F	?	-19%&-7%
Cn1c(=O)c2sccc2n2c(CCCC(=O)Nc3ccc(Oc4ccccc4)cc3)nnc12	-5%	-13%
Cc1ncc2c(c1CNC(=O)c1cncs1)CCN(C(=O)c1csc(-c3cccs3)n1)C2	-4%	11%
Cc1ccc2oc(-c3ccc(NC(=O)c4cccc(F)c4)c(C)c3)nc2c1	2%	-6%
Cc1onc(-c2c(Cl)cccc2Cl)c1-c1nnc(-c2ccc(Cl)cc2)o1	-5%	-13%
C=CCn1c(O)c(C(C)=Nc2cccc(C(=O)O)c2)c(=O)[nH]c1=O	i	-4%
CCOC(=O)CC1C(=O)NCCN1S(=O)(=O)c1ccc(Br)cc1 (centres undefined)	i	-10%
CCOC(=O)c1sc(NC(=O)COC(=O)c2ccco2)nc1C	nt	?
CCOc1ccc(NC(=O)NNC(=O)c2cccnc2)cc1	i	-18%

Rewritten with each value named: 4 of the compounds above.
SMILES: Cc1ccc([C@H]2C[C@@H](n3cc(-c4ccc(F)cc4)nn3)[C@H](O)CN2Cc2cccs2)cc1
  Vaccinia mCherry: i	VACV Venus inh: -24%

SMILES: C=CCn1c(O)c(C(C)=Nc2cccc(C(=O)O)c2)c(=O)[nH]c1=O
  Vaccinia mCherry: i	VACV Venus inh: -4%

SMILES: CCOC(=O)CC1C(=O)NCCN1S(=O)(=O)c1ccc(Br)cc1 (centres undefined)
  Vaccinia mCherry: i	VACV Venus inh: -10%

SMILES: Cc1ccnc(NC(=O)c2ccccc2NC(=O)C(C)(C)C)c1
  Vaccinia mCherry: -19%	VACV Venus inh: ?

(list continues)
SMILES	Vaccinia mCherry	VACV Venus inh
O=P(C1=C(N2CCOCC2)/C(=C\c2ccccc2)CC1)(N1CCOCC1)N1CCOCC1	-10%	-11%
Cc1[nH]nc(-c2ccc(O)cc2O)c1Oc1ccccc1	?	?
Cc1cccc(NC(=O)Cn2cnc3c(oc4ccccc43)c2=O)c1C	-1%	-6%
Brc1ccc(OCc2nc(-c3ccccn3)n[nH]2)cc1	nt	-35%
CSc1ncccc1C(=O)OCc1ccccc1F	-21%[1.46 µM]	-26%
COc1ccc(N2CCN(c3ccc(-c4nc(-c5cccc(C)c5)no4)cc3[N+](=O)[O-])CC2)cc1	-12%	0%
COc1ccc(-c2coc3cc(OC)ccc3c2=O)cc1	-4%	3%
Cc1nc2ccccc2c(=O)n1/N=C/c1ccc(O)cc1O	?	-11%
Cc1ccc(CNc2c(C=O)c(=O)[nH]c3ccccc23)cc1	-17%	-6%
CCC(C)n1c(-c2cccc(S(=O)(=O)N3CCOCC3)c2)n[nH]c1=S (centres undefined)	-16%	-5%
O=C(Cc1ccc(Cl)cc1)Nc1ccc(NC(=O)c2cccs2)cc1	-5%	-8%
COc1ccc(OC)c(-n2c(Cn3c(-c4ccccn4)nc4ccccc43)n[nH]c2=S)c1	-24%	-3%
CN(C)S(=O)(=O)N1CCC(Oc2ccc(C(=O)NCC(C)(C)CO)cc2)CC1	-16%	-12%
COc1ccc(-c2ccc(CN3C(C)C(=O)N(Cc4cn(Cc5ccco5)nn4)CCS3(=O)=O)cc2)cc1 (centres undefined)	-20%	?
CC1=C(CC[C@@H](C)CO)OC2CC3C4CCC5CC(O)CCC5(C)C4CC(=O)C3(C)C12 (some centres undefined)	-4%	-17%

2 compounds picked at random from those above:
SMILES	Vaccinia mCherry	VACV Venus inh
O=C(Cc1ccc(Cl)cc1)Nc1ccc(NC(=O)c2cccs2)cc1	-5%	-8%
CC1=C(CC[C@@H](C)CO)OC2CC3C4CCC5CC(O)CCC5(C)C4CC(=O)C3(C)C12 (some centres undefined)	-4%	-17%
